Screening data deposited in PubChem by several laboratories.
RN4220 kill – growth inhibition of S. aureus RN4220, primary screen, OD600 | 16 h | inhibition, % (test concentration not listed) | hit rate 0.33% among 330,000 | AID 1259311, 2017;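 active = z-score of -3 or lower and OD600 up to 0.18 on both plates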;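 also: plate controls were untreated cells for no effect and reference antibiotic for full effect; stock transfer was 100 nL into about 80 µL; one replicate is shown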
BJeLR lethal – MLPCN primary cell-based screen for lethality selective to Ras in HRASV12 cells; BJeLR (HRASV12) viability, CellTiter-Glo ATP luminescence, 48 h; reference of the scale not given here; inhibition, % (no concentration beside the values); hit rate 0.17% among 300,000;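 active = replicate mean above 50%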;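 also: 50 nL library stock added to about 25 µL; numbers are from one replicate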
Bead autofluor – compound fluorescence in toxin protease inhibitor counterscreen | compound autofluorescence counterscreen, microsphere flow cytometry; stronger effect = higher value | fluorescence intensity (concentration not given with the values) | hit rate 3.1% among 360,000 | AID 624483;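 active = at least 3 SD above the mean of all compounds, about 16000 in these data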;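 also: 100 nL of 1 mM stock went into each well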
Mtb hypoxia rep – PubChem AID 1159583 | hit rate 0.1% among 300,000 | fluorescence inhibition, % (concentration not given with the values) | M. tuberculosis hypoxia-regulated fluorescent reporter, fluorescence;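 active = 35 to 45% if threefold the growth effect, above 45% if 1.5-fold the growth effect; inactive = the rest, general growth blockers included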;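 also: wells of about 50 µL received 100 nL stock; 0% = vehicle wells and 100% = reference inhibitor wells; whole bacteria with a GFP reporter of the hypoxia response; strong numbers were not always called active; many hits fall short of the cut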
Sa ugtP lethal – growth inhibition of ugtP-null S. aureus, primary screen, RN4220 ugtP deletion, OD600 | 16 h; some inactives read as strong as hits | growth inhibition, % (concentration not given with the values) | hit rate 0.54% among 330,000 | AID 1259309, 2017;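 active = z-score under -3 and OD600 up to 0.15 on both plates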;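 also: plate controls were untreated wells for no effect and antibiotic for full effect; wells of about 80 µL received 100 nL stock; the first replicate is given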
PrP UTR inh – inhibition of PrP 5' UTR reporter expression; AID 488862, 2010; hit rate 0.35% among 340,000; cell-based PrP 5' UTR mRNA reporter, plate reader; inhibition, % (concentration not given with the values);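 active = every replicate at 50% or more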;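 also: 0 = median of the neutral control wells; tested in H4 reporter cells; numbers are from one replicate; inactives centre near -14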
Mtb hypoxia rep growth – recorded beside Mtb hypoxia rep, whose call it bears; growth inhibition, %; measured here: M. tuberculosis growth (absorbance);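 0% = vehicle and 100% = reference antibiotic; read after six days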
Numbers without * were called inactive; x = no result given.

Assay codes: A = RN4220 kill; B = BJeLR lethal; C = Bead autofluor; D = Mtb hypoxia rep; E = Mtb hypoxia rep growth; F = Sa ugtP lethal; G = PrP UTR inh
> CCN(CCCNC(=O)CNC(=O)c1nn(-c2ccc(OC)cc2)c(=O)c2ccccc12)c1cccc(C)c1
  A = 0.2; B = -2; C = 5781; D = 1; E = 6; F = 2; G = -11

> CCOC(=O)Cn1c2ccc(F)cc2c2nc(C)sc21
  A = -0.6; B = -4; C = 4355; D = -9; E = -4; F = 3; G = -11

> O=C1C2C3C=CC(CC3)C2C(=O)N1N=Cc1c[nH]c2ccccc12 (centres undefined)
  A = 1.7; B = x; C = x; D = -7; E = -6; F = 1; G = x

> C[C@H]1CCC2[C@](C)(CO)[C@@H](O)CC[C@]2(C)[C@@]12CCC(CO)(CCO)O2 (some centres undefined)
  A = 1.0; B = -6; C = 3971; D = 7; E = -8; F = 3; G = -12

> CC(C)=Cc1oc2ccc([N+](=O)[O-])cc2c1N1CCOCC1
  A = -0.8; B = -5; C = 3909; D = 1; E = 4; F = 2; G = -10

> Cc1sc[n+](CC(=O)c2ccc(Br)cc2)c1C
  A = -1.5; B = -6; C = 5693; D = 2; E = 1; F = 0; G = -20

> C/C(=N\NS(=O)(=O)c1ccc(Cl)c([N+](=O)[O-])c1)c1cc2ccccc2o1
  A = x; B = 13; C = 22417*; D = x; E = x; F = x; G = -5

> CN(C)S(=O)(=O)c1ccc(-n2cccc2)cc1
  A = 1.5; B = -5; C = 2800; D = 3; E = 8; F = 0; G = -12

> COc1cc(NC(=O)Cn2c(=O)n(CC3CCCO3)c(=O)c3ccccc32)cc(OC)c1 (centres undefined)
  A = 3.8; B = 9; C = 4496; D = 14; E = 11; F = 3; G = -30

> COc1ccc(CCNC(=O)CN2CCN(c3ccccc3Cl)CC2)cc1
  A = 6.7; B = 0; C = x; D = 18; E = 10; F = 0; G = -3

> O=C(Nc1cc2cc([N+](=O)[O-])ccc2oc1=O)c1cccs1
  A = 6.0; B = -4; C = x; D = 6; E = -3; F = 3; G = x

> Cc1cccc(Cn2c(N3CCN(C)CC3)nc3c2c(=O)[nH]c(=O)n3C)c1
  A = 9.0; B = -1; C = 4199; D = 16; E = 4; F = 5; G = -22

> CC(=O)c1c(C)[nH]c(C(=O)OCC(=O)Nc2ccc(C)cc2[N+](=O)[O-])c1C
  A = 4.9; B = 13; C = 2059; D = 4; E = 12; F = 1; G = 3

> Nc1nnc(N)c2ccccc12
  A = 5.3; B = x; C = 7779; D = -3; E = 5; F = 1; G = -7

> CC(C(=O)Nc1ccc(S(=O)(=O)N2CCCC2)cc1)N1CCc2ccccc2C1 (centres undefined)
  A = 3.3; B = x; C = 8768; D = 11; E = 9; F = 8; G = -26

Quoted from the listing:
Cc1sc[n+](CC(=O)c2ccc(Br)cc2)c1C in Bead autofluor is listed with 5693
CCN(CCCNC(=O)CNC(=O)c1nn(-c2ccc(OC)cc2)c(=O)c2ccccc12)c1cccc(C)c1 in BJeLR lethal is listed with -2
Cc1cccc(Cn2c(N3CCN(C)CC3)nc3c2c(=O)[nH]c(=O)n3C)c1 in RN4220 kill is listed with 9.0
CC(C(=O)Nc1ccc(S(=O)(=O)N2CCCC2)cc1)N1CCc2ccccc2C1 (centres undefined) in Sa ugtP lethal is listed with 8
CCOC(=O)Cn1c2ccc(F)cc2c2nc(C)sc21 in BJeLR lethal is listed with -4
CN(C)S(=O)(=O)c1ccc(-n2cccc2)cc1 in RN4220 kill is listed with 1.5

(listing goes on)
Assay codes: A = RN4220 kill; B = BJeLR lethal; C = Bead autofluor; D = Mtb hypoxia rep; E = Mtb hypoxia rep growth; F = Sa ugtP lethal; G = PrP UTR inh
> Cc1ccc(C(=O)Cn2cncn2)cc1
  A = 2.7; B = -3; C = 3739; D = -11; E = 3; F = 3; G = -4

> COCc1cc(C)nc(OCC(=O)NN=Cc2ccc(O)cc2O)c1C#N
  A = 2.0; B = x; C = x; D = 16; E = 3; F = 8; G = x

> COc1ccc(-n2c(SCC(=O)Nc3ccccc3OC)nc(O)c(Cc3ccccc3)c2=O)cc1
  A = 0.1; B = 2; C = 4423; D = 6; E = -2; F = 10; G = -7

> c1ccc(CC2CNCCN2CCCCC2CCCCC2)cc1 (centres undefined)
  A = -4.8; B = x; C = x; D = 18; E = 16; F = 0; G = x

> CCOC(=O)c1c(S(=O)(=O)NCC(=O)N2CCN(c3ccccc3OC)CC2)c(C)n(C)c1C
  A = 3.3; B = 5; C = 5114; D = -4; E = 2; F = 3; G = -14

> COc1cc(Cl)c(C)cc1NC(=O)CCN1C(=O)NC(C)(C)C1=O
  A = 0.9; B = x; C = x; D = -6; E = -4; F = 5; G = -13

> CC(=O)N(C)c1ccc(OCC(O)CN(Cc2ccco2)S(=O)(=O)c2ccc(C)cc2)cc1 (centres undefined)
  A = 6.7; B = 3; C = 3499; D = x; E = x; F = 3; G = -12

> O=C(COC(=O)CCc1nc2ccccc2c(=O)[nH]1)Nc1ccccc1Cl
  A = 0.3; B = -7; C = 4288; D = -22; E = -8; F = -4; G = -31

> CCOC(=O)c1ccc(Oc2nc(N(C)C)nc(N3CCOCC3)n2)cc1
  A = -1.2; B = -5; C = 2214; D = 4; E = 3; F = -7; G = -10

> Cc1ccc(C(=O)NCC(=O)NCC(=O)OCc2ccc(Oc3ccc([N+](=O)[O-])cc3)cc2)cc1
  A = -1.1; B = -4; C = 3287; D = 16; E = 12; F = 7; G = -13

> Cc1cc(C)c(S(=O)(=O)c2ccccc2C)c(Oc2ccccc2)n1
  A = 2.2; B = -6; C = 2673; D = x; E = x; F = 13; G = -44

> CN(C)Cc1c(C(=O)N/N=C/c2ccc(OCc3c(F)cccc3Cl)cc2)nnn1-c1nonc1N
  A = x; B = 1; C = 5928; D = x; E = x; F = x; G = -20

> CCN(CC)C(=O)C1=C(C)NC(=S)NC1c1ccc(C)s1 (centres undefined)
  A = 1.9; B = -1; C = 3186; D = -3; E = 2; F = 12; G = -24

> Cc1ccccc1C(=O)N1CCC(C(=O)NC2CCCCCC2)CC1
  A = 2.6; B = -1; C = 4597; D = 15; E = -6; F = 5; G = -6

> O=c1c2ccccc2oc2c1ccc1ccccc12
  A = 0.8; B = x; C = 3522; D = -15; E = -7; F = 5; G = -37

One compound at a time, from the list above.
`O=C(COC(=O)CCc1nc2ccccc2c(=O)[nH]1)Nc1ccccc1Cl` in the list: RN4220 kill = 0.3; BJeLR lethal = -7; Bead autofluor = 4288; Mtb hypoxia rep = -22; Mtb hypoxia rep growth = -8; Sa ugtP lethal = -4; PrP UTR inh = -31
`O=C1C2C3C=CC(CC3)C2C(=O)N1N=Cc1c[nH]c2ccccc12` (centres undefined) in the list: RN4220 kill = 1.7; BJeLR lethal = x; Bead autofluor = x; Mtb hypoxia rep = -7; Mtb hypoxia rep growth = -6; Sa ugtP lethal = 1; PrP UTR inh = x

Further records follow.
Assay codes: A = RN4220 kill; B = BJeLR lethal; C = Bead autofluor; D = Mtb hypoxia rep; E = Mtb hypoxia rep growth; F = Sa ugtP lethal; G = PrP UTR inh
> O=C(NC12CCC(O)C(SC1)C2=NO)c1ccccc1 (centres undefined)
  A = 4.9; B = x; C = x; D = 2; E = 2; F = 3; G = x

> COc1ccc(C(=O)O/N=C(\N)c2ccncc2)cc1OC
  A = 1.3; B = 7; C = 2541; D = 12; E = 2; F = 1; G = -22

> COC(=O)C1=C(c2cc3ccccc3o2)CC2CCC1N2C(=O)NCCO (centres undefined)
  A = 7.0; B = x; C = x; D = 10; E = 10; F = -1; G = x

> Cc1ccccc1CNC(=O)Nc1ccc(Cl)cc1
  A = 2.5; B = 15; C = 3384; D = -5; E = 1; F = -3; G = -34

> COc1ccc(CCN(C)c2ccc(S(=O)(=O)N3CCCC3)cc2[N+](=O)[O-])cc1OC
  A = 7.4; B = 6; C = 2017; D = -6; E = -10; F = 4; G = -17

> CCn1c(=O)cc(SCC(=O)N2CCOCC2)c2ccccc21
  A = 2.8; B = 3; C = 10805; D = -6; E = 8; F = -3; G = -19

> COc1cccc(CNC(=O)CCC2CCCN(C(=O)CCC(F)(F)F)C2)c1 (centres undefined)
  A = 9.2; B = -11; C = 4372; D = 5; E = 12; F = 2; G = -11

> O=S(=O)(c1cc(Cl)ccc1Cl)N1CCN(c2ccccn2)CC1
  A = 1.3; B = 3; C = 3364; D = 13; E = 3; F = 3; G = -21

> O=C(CN1C2=NCCCN2c2ccccc21)c1ccc2c(c1)OCO2
  A = 1.5; B = 0; C = 9449; D = 2; E = 0; F = 2; G = 0

> Cc1ccc(CNC(=O)c2cccc3c2C(=O)c2ccc(N4CCOCC4)cc2S3(=O)=O)cc1
  A = -12; B = x; C = 4005; D = 9; E = 4; F = -3; G = -20

> C=CCN1C(=O)C(CC(=O)O)SC1=Nc1cccc([N+](=O)[O-])c1 (centres undefined)
  A = 2.2; B = -5; C = 5734; D = 14; E = 6; F = 5; G = -16

> C=CC(=O)N1CCCC(Nc2nc(Nc3ccc(N(C)C(=O)CC)cc3C)nc3nc[nH]c23)C1 (centres undefined)
  A = 2.9; B = x; C = 4016; D = -1; E = 4; F = -4; G = -11

> CCC(C)Sc1nnc(-c2c[nH]c3ccccc23)n1CCOC (centres undefined)
  A = -2.1; B = -3; C = 10314; D = -3; E = -9; F = -10; G = -12

> O=C(NCCCN1CCOCC1)c1cccc(S(=O)(=O)Nc2cc(Cl)ccc2Cl)c1
  A = 6.5; B = 5; C = 4201; D = 23; E = -3; F = 4; G = -25

> O=C(CCn1c(=S)[nH]c2cc3c(cc2c1=O)OCO3)NCc1ccc(Cl)cc1
  A = 1.5; B = 1; C = 5149; D = -4; E = -2; F = -7; G = -8

Following part
Assay codes: A = RN4220 kill; B = BJeLR lethal; C = Bead autofluor; D = Mtb hypoxia rep; E = Mtb hypoxia rep growth; F = Sa ugtP lethal; G = PrP UTR inh
> O=C(NC1(N2CCOCC2)CC1)c1ccc(Cl)cc1
  A = 6.7; B = 0; C = 2868; D = 14; E = 4; F = 12; G = -25

> Cc1nc(N2CCN(c3ccccn3)CC2)c2c(C)c(C(=O)N3CCN(c4cccc(Cl)c4)CC3)sc2n1
  A = -3.1; B = -9; C = 7836; D = 8; E = 4; F = -8; G = 0

> COC(=O)N/N=C/c1ccccc1Cl
  A = x; B = 5; C = 4304; D = x; E = x; F = x; G = -10

> C[C@@H](C(=O)NCCc1ccccc1)N1C(=O)N2CCc3c([nH]c4ccccc34)[C@@]2(C)C1=O
  A = 4.5; B = -7; C = 5709; D = x; E = x; F = -8; G = -21

> COc1cc2c(cc1OC)CN(S(C)(=O)=O)CC2
  A = 3.3; B = 2; C = 5810; D = 6; E = 9; F = 4; G = -24

> CC(=NNC(=O)c1cccnc1)C1=C(O)CC(C)(C)CC1=O
  A = 7.5; B = x; C = x; D = -1; E = -8; F = 15; G = x

> CCN1CCN(C(=O)c2ccccc2N(C)S(=O)(=O)c2ccc(C)cc2)CC1
  A = 3.0; B = -12; C = 3996; D = 13; E = 19; F = -3; G = -3

> CCOC(=O)C(N=Nc1c(C)n(C)n(-c2ccccc2)c1=O)=C(O)c1ccccc1
  A = 5.1; B = x; C = x; D = 10; E = 15; F = -8; G = x

> CCOc1cc(S(=O)(=O)N2CCCCC2)ccc1F
  A = 1.5; B = -17; C = 22074*; D = 5; E = 16; F = 4; G = -11

> O=S(=O)(NCCC1=CCCCC1)c1ccccc1Cl
  A = -4.2; B = x; C = 3012; D = 1; E = -4; F = -7; G = -6

> CN1CCN(C(=S)Nc2ccc([N+](=O)[O-])cc2)CC1
  A = 18; B = -3; C = 3317; D = -1; E = 7; F = 16; G = -13

> CCOC(=O)C1=C(C)N=c2sc(=Cc3cccc([N+](=O)[O-])c3O)c(=O)n2C1c1ccccc1 (centres undefined)
  A = -3.8; B = x; C = x; D = 14; E = -5; F = 16; G = x

> CC(=O)N1CCc2ccc([N+](=O)[O-])cc21
  A = 4.0; B = x; C = 3755; D = 4; E = 10; F = 7; G = -25

> CCCN1CCC(=O)N([C@H](CSc2ccc(C)cc2)CC(C)C)CC1
  A = x; B = 2; C = 3694; D = x; E = x; F = x; G = -25

> CCOC(=O)c1sc(NC(=O)CCN2C(=O)c3ccccc3C2=O)c(C(=O)OCC)c1C
  A = 5.6; B = -4; C = 2375; D = 5; E = 2; F = -6; G = -21

Rows were taken by chance; 4% or so of the library scored in one or more.
